# eIF4H FP inh: inhibitors of RNA binding by human eIF4H; Q15056; eIF4H fluorescence polarization binding assay; 290,000 compounds, 0.94% hits; inhibition, % at 35 µM;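 active means 50% or more with normal probe brightness, or confirmed in later tests; inconclusive means above 50% with abnormal brightness, or retests that disagree; inactive means below 50% or failed in later tests; about a fifth of its hits are not listed in these tables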;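 further: calls also rest on retests at 20 µM and on dose response follow-up; 0% = protein and probe with vehicle and 100% = probe without protein; strong numbers were not always called active; many hits fall short of the cut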
# MT1-MMP act inh: inhibitors of human MT1-MMP activation; HT1080 RFP-PRO-GFP cells, GFP/RFP ratio fluorescence, overnight; percent of plate control window, DMSO zero; GFP/RFP ratio change, % at 20 µM; 360,000 compounds, 0.061% hits; P50281;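 active means GFP/RFP ratio change of at least 30% with cell ATP level not reduced by more than half and red fluorescence within 50% of control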; further: strong numbers were not always called active
#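 Test system: HT1080 cells expressing an RFP-PRO-GFP fluorescent reporter construct / Compound dosing: single-point 20 µM compound, 1% DMSO / Schedule: cells overnight before dosing, compound overnight, 37 °C, 5% CO2 / Evaluation: GFP/RFP fluorescence ratio / Control set: DMSO and RFP-L50D-GFP cell wells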
# PABP polyA inh: PABP-poly(A) binding inhibition; P11940; PABP-poly(A) RNA binding, fluorescence polarization; inhibition, % at 35 µM; 290,000 compounds, 1% hits; AID 2014;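 active means 50% or more with normal probe brightness, or confirmed in later tests; inconclusive means above 50% with abnormal brightness, or retests that disagree; inactive means below 50% or failed in later tests; about a fifth of its hits are not listed in these tables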;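 further: calls also rest on retests at 20 µM and on dose response follow-up; controls were probe without protein and protein plus probe with vehicle; some compounds called inactive have numbers as strong as hits; many hits fall short of the cut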
# Target sequence (P11940 whole entry, looked up): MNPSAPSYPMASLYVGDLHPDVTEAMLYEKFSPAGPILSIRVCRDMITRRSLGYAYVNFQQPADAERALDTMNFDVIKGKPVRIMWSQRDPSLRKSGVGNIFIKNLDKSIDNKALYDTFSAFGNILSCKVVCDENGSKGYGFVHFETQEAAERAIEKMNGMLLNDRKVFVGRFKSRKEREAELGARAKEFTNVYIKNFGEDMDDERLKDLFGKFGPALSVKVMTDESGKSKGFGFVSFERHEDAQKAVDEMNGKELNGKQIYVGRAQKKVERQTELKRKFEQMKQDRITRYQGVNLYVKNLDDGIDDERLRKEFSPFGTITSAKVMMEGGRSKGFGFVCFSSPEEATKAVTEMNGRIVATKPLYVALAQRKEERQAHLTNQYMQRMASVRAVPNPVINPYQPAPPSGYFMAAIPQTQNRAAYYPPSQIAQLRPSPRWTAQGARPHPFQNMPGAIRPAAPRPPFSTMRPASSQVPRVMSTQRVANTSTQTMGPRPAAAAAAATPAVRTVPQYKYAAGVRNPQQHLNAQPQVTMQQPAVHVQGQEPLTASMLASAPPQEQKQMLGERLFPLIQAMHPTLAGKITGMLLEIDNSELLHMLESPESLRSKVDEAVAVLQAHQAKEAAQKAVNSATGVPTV
# Rce1 inh: blocks yeast Ras-converting enzyme; Q03530; yeast membranes, quenched prenylated peptide cleavage fluorescence; calls only; 290,000 compounds, 0.27% hits;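 active means fall in fluorescence gain of 50% or more versus controls, with final raw signal at or below 3038400; inconclusive means same 50% fall but final raw signal above 3038400; inactive means fall in fluorescence gain under 50%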;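 further: plate controls were neutral control wells for no effect and wells lacking membranes for full effect; tested at 10 µM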
# Target sequence (Q03530 whole entry, looked up): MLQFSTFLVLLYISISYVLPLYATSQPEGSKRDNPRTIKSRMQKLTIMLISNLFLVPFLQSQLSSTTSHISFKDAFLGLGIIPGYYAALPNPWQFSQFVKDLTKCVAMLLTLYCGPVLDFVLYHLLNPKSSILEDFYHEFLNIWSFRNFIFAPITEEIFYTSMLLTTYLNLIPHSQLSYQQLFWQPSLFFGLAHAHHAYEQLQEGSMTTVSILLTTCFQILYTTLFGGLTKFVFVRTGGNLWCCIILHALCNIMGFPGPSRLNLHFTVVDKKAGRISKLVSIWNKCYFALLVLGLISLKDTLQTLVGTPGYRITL
# CSC inhib: cancer stem cell inhibition; cancer stem cell-like cells viability, luminescence; inhibition, % at 7.5 µM; 300,000 compounds, 1.1% hits; AID 2717;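 active means mean at 75% or more and at least half the replicates too; inconclusive means mean and replicates disagree; tested in HMLE shEcad cells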;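 further: 0% = median of negative and 100% = median of positive control wells; the first replicate is given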
# UUG fidelity: yeast start codon fidelity modulation | S. cerevisiae UUG-firefly luciferase reporter, luminescence/redox ratio | 350,000 compounds, 0.13% hits | activity score, % at 18.7 µM;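 active means replicate mean at a twofold rise or more, about +100% in these data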;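 further: firefly luciferase made from a UUG start codon reports start codon fidelity; reporter light over untreated wells divided by growth signal over untreated wells; some hits fall short of that in this replicate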
# HIV Env fusion: blocks HIV Env-driven cell-cell fusion | HeLa-JRFL Env/CEM21 cell fusion, luciferase | inhibition, % at 12.3 µM | 360,000 compounds, 1.1% hits | AID 651610;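 active means mean replicate inhibition score of at least 50 and every replicate individually at or above 50; inconclusive means only one of the two criteria met; inactive means mean below 50 and not all replicates reaching 50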;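 further: 0% = plate neutral controls and 100% = maraviroc near 300 nM; one replicate is shown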
# eIF4H FP inh retest: also measured in eIF4H FP inh; calls as there; inhibition, %; compound at 20 µM; confirmation average;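 mean of two retest wells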
# PABP polyA inh retest: also measured in PABP polyA inh; calls as there; inhibition, %; compound at 20 µM; confirmation repeats;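 mean of two retest wells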
# MT1-MMP act inh RFP: recorded beside MT1-MMP act inh, whose call it bears; RFP signal change, %; measured here: RFP expression control read;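 0 = vehicle wells; hits needed this value within 50% of zero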
# Active calls of the source: *; i = inactive; ? = inconclusive; · = not tested or not shown; & = joins results of further samples; [ ] = dose if it differs, or a comment.
SMILES,eIF4H FP inh,MT1-MMP act inh,MT1-MMP act inh RFP,PABP polyA inh,Rce1 inh,CSC inhib,UUG fidelity,HIV Env fusion,others
COc1ccc(OC)c(NC(=S)N2CCN(C/C=C/c3ccccc3)CC2)c1,0,2,-2,6,i,26,-27,-30,
O=CN1N=C(c2ccccc2)CC1c1ccc(Cl)cc1 (stereo unspecified),4,1,-2,-4,·,11,-12,8,
C/C(=N\NC(=O)CCC(=O)N/N=C(\C)c1ccc(C)o1)c1ccc(C)o1,·,2,6,·,i,1,21,9,
CN=c1scc(-c2ccc(OC)cc2)n1/N=C(\C)c1cccnc1,-4,-3,-20,-2,i,10,·,4,
C#CCOc1c(Br)cc(/C=N\NC(=O)CN2CCOCC2)cc1OCC,-3,-4,-3,9,i,16,-9,·,
CCCN(C(=O)CSCc1ccc(Cl)cc1)c1c(N)n(Cc2ccccc2)c(=O)[nH]c1=O,·,1,-4,·,i,·,1,-243,
COc1ccc(NC(=O)Nc2ccccc2SC)cc1OC,0,1,-1,-2,i,-7,·,4,
CC1(C)CC(=O)C(C(=S)Nc2ccccc2)=C(NCCN2CCOCC2)C1,-2,1,1,-2,i,-6,-20,-8,
Oc1c(C(c2ccco2)N2CCN(C(c3ccccc3)c3ccccc3)CC2)sc2ncnn12 (stereo unspecified),24,-10,-6,6,i,37,-3,-22,
O=C(O)c1cccc(N2C(=O)CSC2=S)c1,-2,36*,38*,3,i,-11,-6,6,
COc1cc(/C=C2\SC(N)=NC2=O)ccc1OCC(=O)Nc1ccccc1C,·,-1,0,·,·,7,-14,-28,
COC(=O)c1[nH]c2c(c1C)C(=O)CC(c1ccccc1)C2 (stereo unspecified),-7,10,-10,-5,i,56,-15,·,
Cc1ccc(C)c(OCC(=O)N/N=C/c2c(C)nn(-c3ccccc3)c2Cl)c1,0,·,·,1,i,9,·,-234,
CC(=O)C[C@@H](O)CC(=O)[C@H]1OC(=O)CCCCCc2ccccc21,·,3,14,·,·,·,14,27,
CCOC(=O)CNC(=O)CSc1nccn1Cc1ccco1,1,-2,-1,2,i,-4,·,-6,
O=C(NCCOc1cccc(Cl)c1Cl)c1cc(-n2cnnc2)ccc1Cl,-2,-1,-1,7,i,-8,·,·,
COc1ccc(-n2c(SCC(=O)NCC3CCCO3)nc3c(c2=O)SC(C)C3)cc1 (stereo unspecified),10,2,2,3,i,2,-8,-3,
CC(C)C(NC(=O)CCNC(=O)c1ccc([N+](=O)[O-])cc1)c1nc2ccccc2[nH]1 (stereo unspecified),·,-4,1,·,·,-4,-8,·,
NC(=O)c1ccc(NC(=O)COC(=O)CC2Sc3ccccc3NC2=O)cc1 (stereo unspecified),·,-1,2,·,·,·,-6,-26,
C=CCNC(=O)C1=NOC(CNC(=O)c2c(-c3ccccc3Cl)noc2C)C1 (stereo unspecified),-2,0,4,-4,i,·,-7,·,
CCN(CC(=O)Nc1c(F)cccc1F)C(=O)CSCc1ccc(C)cc1,·,-2,-2,·,·,·,-9,16,
O=C(Nc1cccc(O)c1)N1CCOCC1,?,-7,3,-3,i,-5,-5,·,
Cc1ccc(C)c(S(=O)(=O)Nc2nc(C)c(C(=O)Nc3ccccc3)s2)c1,-8,1,-5,-5,i,-2,-1,13,
CCOC(=O)c1cc2cc3ccccc3cc2oc1=O,0,-3,-1,-8,i,-7,-15,-8,
O=C1c2ccccc2S(=O)(=O)N1CC(O)Cn1c2ccccc2c2ccccc21 (stereo unspecified),2,·,·,-4,i,2,-8,-32,
Cc1nc2c(ccc3c([N+](=O)[O-])cccc32)c(C)c1C,0,1,3,1,i,14,4,10,
FC(F)(F)c1ccc2c(c1)nc1n2CCCC1,-8,2,-4,0,i,-3,-15,-61,
COc1ccccc1CN1C2CCCC1CC(NC(=O)/C=C/c1ccccc1)C2 (stereo unspecified),-7,4,2,3,i,-1,·,-16,
N#Cc1cc(-c2ccccc2)cnc1Cl,-7,1,-1,0,i,-17,·,-92,
Nc1ncc(-c2nnnn2-c2ccc(Cl)cc2)c(-c2ccc(Cl)cc2)n1,2,-2,-7,1,i,58,-6,?,
CN1CCCN(C(=O)c2cccc(Cl)c2)CC1,-2,-2,5,-1,i,7,-13,11,
CCC(=O)OCc1cc2cccc(C)c2[nH]c1=O,-3,8,2,-3,i,-5,·,·,
COc1ccc(OCCC(=O)OCc2c(C)noc2C)cc1,8,-4,6,-9,i,-10,-23,-133,
Cc1cc(C(=O)N2CCc3ccccc32)n(-c2ccccc2)n1,13,-1,-4,-4,i,18,-17,-9,
CCOc1ccc(Oc2nc(NCC(C)C)nc(N(C)C)n2)nn1,-6,2,3,-2,i,-8,-14,·,
C[C@H](NC(=O)[C@@H]1Cc2ccccc2CN1)C(=O)NC1CCCCC1,-10,0,5,8,i,7,-19,-1,
Clc1ccc2oc(-c3ccccc3)nc2c1,-11,-1,-3,-14,i,0,-13,-240,
CC(=O)Nc1ccc(OCC(O)Cn2cccn2)cc1 (stereo unspecified),-12,3,5,9,i,14,-9,0,
CCOc1ccc(C(=O)NCC(c2ccco2)N2CCc3ccccc3C2)cc1 (stereo unspecified),·,4,2,·,i,9,-9,-2,
CCOc1ccc(NC(=O)CN(C)C(=O)c2ccc(NC3CC3)c([N+](=O)[O-])c2)cc1OCC,·,3,1,·,i,-4,·,3,
OC(COCC1COc2ccccc2O1)CN1CCN(c2ccccc2)CC1 (stereo unspecified),11,0,0,4,i,16,-7,·,
CC(=O)Nc1ccc(S(=O)(=O)NC2(C(F)(F)F)NC(=O)N(C3CCCC3)C2=O)cc1 (stereo unspecified),-6,0,1,-3,i,-4,-12,-13,
CCCc1cc(=O)[nH]c(SCC(=O)N(CCOC)c2c(N)n(Cc3ccccc3)c(=O)[nH]c2=O)n1,·,4,-1,·,i,-4,·,-3,
CCOC(=O)c1sc(-c2cccc(C(F)(F)F)c2)nc1O,3,-2,1,6,i,-14,·,-8,
N#C/C(=C\c1ccc(Cl)cc1)C(=O)NC1CC1,·,0,1,·,i,6,·,19,
CCOc1ccc(OCCCC(=O)O)cc1,-5,2,4,-2,i,-6,-12,-22,
CCOc1ccc(NCC(=O)c2ccc(C)cc2)cc1,9,-2,-8,1,i,16,·,-4,
Cc1ccc(OCC(=O)Nc2ccc(S(=O)(=O)N3CCCC3)cc2)cc1,2,0,0,8,i,-14,-3,-3,
O=C(NCc1cccs1)C1CCCN(S(=O)(=O)c2cccs2)C1 (stereo unspecified),0,-3,-2,-13,i,-6,-8,·,
O=C(NCc1ccc(F)cc1)C1CCC(CNc2c(N3CCOCC3)c(=O)c2=O)CC1 (stereo unspecified),0,2,4,0,i,-8,·,2,
COCC(C)NC(=O)c1nn(Cc2ccccc2)c(=O)c2ccccc12 (stereo unspecified),0,0,-2,6,i,-7,-5,-1,
CCOP(=O)(Nc1cccc2oc(=O)c3ccccc3c12)OCC,·,2,2,·,·,·,-13,i,
O=C(CCC(=O)N1CCN(c2ccccc2F)CC1)c1ccc(F)cc1,-5,2,3,1,i,-12,0,-40,
O=C(C1=C[C@@H](c2ccc(C(F)(F)F)cc2)C[C@@H](OCCCCO)O1)N1CCOCC1,-4,2,6,-2,i,-19,-7,2,
COCCN(Cc1cc2cc(C)ccc2n2nnnc12)C(=S)Nc1ccc(C)cc1,-6,1,-5,8,i,0,·,-3,
CCCCN1C[C@H](CSC)[C@@H](CC(=O)Nc2ccc(Br)cc2)C1=O,·,1,-3,·,·,·,4,-34,
Cc1nc(NC(=O)CSc2nnc(C3CC3)n2N)c(Cl)cc1Cl,·,3,4,·,·,-16,-15,·,
N#Cc1c(N)n(-c2ccc(O)cc2)c2nc3ccccc3nc12,-5,3,2,-1,i,-8,·,9,
CC(C)(C)C(=O)Nc1ccc(C(=O)Nc2cc(NC(=O)c3ccc(NC(=O)C(C)(C)C)cc3)cc(C(=O)O)c2)cc1,-5,-3,3,-3,i,-1,1,4,
COCCNC(=O)c1cc2c(c(-c3cccc(C#CC(C)(C)O)c3)n1)[C@@H](CCO)N(S(=O)C(C)(C)C)C2 (stereo partly specified),·,4,5,·,·,·,1,4,

# A portion from further up, as a working copy:
SMILES,eIF4H FP inh,MT1-MMP act inh,MT1-MMP act inh RFP,PABP polyA inh,Rce1 inh,CSC inhib,UUG fidelity,HIV Env fusion,others
CCOc1ccc(OCCCC(=O)O)cc1,-5,2,4,-2,i,-6,-12,-22,
CCOc1ccc(NCC(=O)c2ccc(C)cc2)cc1,9,-2,-8,1,i,16,·,-4,

# (more compounds)
SMILES,eIF4H FP inh,MT1-MMP act inh,MT1-MMP act inh RFP,PABP polyA inh,Rce1 inh,CSC inhib,UUG fidelity,HIV Env fusion,others
CC(C)(C)OC(=O)NCCc1onc(-c2ccc([N+](=O)[O-])cc2)c1C(=O)O,·,0,2,·,·,·,6,19,
CCOC(=O)C1(C(C)(C)CC)CC(CSc2nc3ccccc3[nH]2)OC1=O (stereo unspecified),0,8,-6,6,i,·,-10,31,
CCOC(=O)c1nc(Nc2ccc(OC)cc2)c2ccccc2n1,8,-2,-2,9,i,7,-14,·,
O=S(=O)(NC1CCCCC1NS(=O)(=O)c1ccc(F)cc1)c1ccc(F)cc1 (stereo unspecified),-6,-2,-1,9,i,6,-11,10,
O=C(O)CCCNC(=O)c1ccccn1,5,4,4,-2,i,-7,·,10,
N#Cc1cc2c(nc1SCc1ccc(Cl)nc1)CCCCC2,-1,-1,-6,-9,i,15,-8,-2,
N#Cc1ccc(COc2ccc(CCO)cc2-n2nc3ccccc3n2)cc1,-2,1,-1,-9,i,-5,-4,·,
CC[C@@H](NS(=O)(=O)c1ccc(C)cc1)C(=O)Oc1ccc2c3c(c(=O)oc2c1)CCC3,-8,-2,-1,13,i,-1,·,-33,
CC(=O)c1cccc(CN2CCCC(C(=O)Nc3ccc(-c4ccco4)cc3)C2)c1 (stereo unspecified),-13,-7,5,-21,i,-6,7,-29,
CCn1c2ccccc2c2cc(N=C3SC(CC(=O)Nc4ccccc4OC)C(=O)N3C)ccc21 (stereo unspecified),-3,-3,0,-9,i,18,·,-37,
Cc1c(NC(=O)C(C)OC(=O)c2c3c(nc4ccccc24)CCC3)c(=O)n(-c2ccccc2)n1C (stereo unspecified),50,-2,8,-8,i,-7,·,·,eIF4H FP inh retest=-7;PABP polyA inh retest=3
CCOc1cc(CNn2cnnc2)cc(Br)c1OCC(=O)NC1CCCCC1,4,-4,-2,-10,i,5,-13,-14,
O=C(Nc1ccccc1)Nc1nnc(-c2ccccc2)s1,-2,4,4,10,i,-2,-22,-14,
O=C(c1ccc(COc2c(F)c(F)c(F)c(F)c2F)o1)N1CCOCC1,9,2,3,17,i,-9,-17,·,
COc1ccccc1C(=O)Nc1c2c(nn1-c1ccc([N+](=O)[O-])cc1)CS(=O)(=O)C2,-20,1,3,2,i,9,20,10,
C[C@H](CO)N1C[C@H](C)[C@@H](CN(C)C(=O)NC2CCCCC2)Oc2ccc(NC(=O)Cc3ccccc3)cc2C1=O,·,4,6,·,·,·,9&-8,-4[16.7 µM],
CCCCNC(=O)N(O)C1N(/N=C/c2cccs2)C(=S)SC1(C)C (stereo unspecified),-5,1,-1,2,i,-6,·,67*,
COc1cccc(NC(=O)CN(C)C(=O)c2cccnc2Sc2ccc(C)c(C)c2)c1,·,-1,-1,·,i,-3,·,5,
CC12COC3(C(=O)Nc4ccccc4)CC1CCC32C (stereo unspecified),2,2,1,4,i,·,-14,2,

# High-throughput results deposited in PubChem BioAssay by several laboratories.
